Ecoli rRNA inh: reduced GFP signal of wild-type E. coli, primary screen, bacterial rRNA inhibitor project, GFP/RFP fluorescence, OD600, single point; E. coli WT GFP vs humanized-ribosome RFP mutants, 24 h; stronger effect = lower value; DMSO median 0, no signal -100; GFP signal change (wild-type ribosome), % (no concentration beside the values); 1.6% of 350,000 active; AID 720706, 2013;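 active means significant combined selectivity score with lowered wild-type GFP, culture density cut under 30%, mutant RFP and density less affected; inactive means any of these conditions unmet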; further: one replicate is shown; some compounds called inactive have numbers as strong as hits
T cruzi repl: inhibitors of intracellular T. cruzi growth, primary screen, luminescence, NIH3T3 host cells | T. cruzi beta-gal in NIH3T3, 90 h | inhibition, % (concentration not given with the values) | 1.4% of 300,000 active | AID 1885, 2009;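 active means mean inhibition across valid replicates above about 55%, limit read from the data; inconclusive means mean below that limit but half or more replicates reach it; inactive means mean below it, under half of replicates reach it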;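 further: signal also drops with host cell toxicity which is not excluded here; 0% = plate median of DMSO wells and 100% = zero luminescence signal; higher percent means less beta-gal luminescence so fewer parasites; stock transfer was 50 nL into about 50 µL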
Ecoli growth: E. coli growth inhibition, primary screen, OD600; Escherichia coli growth, 23 h; stronger effect = lower value; AID 1053175, 2014; OD600 absorbance (test concentration not listed); 0.21% of 330,000 active;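 active means OD600 absorbance below the run mean of sample wells minus 3.6 SD, in any replicate, cut at about 0.56 in these data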;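 further: stock transfer was 300 nL into about 60 µL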
Beta apoptosis: inhibitors of cytokine-induced beta cell apoptosis, primary screen, luminescence; INS-1E cytokine-induced death, ATP luminescence, 48 h; percent of positive-control rescue, neutral wells zero; protection from apoptosis, % (no concentration beside the values); 0.8% of 300,000 active; AID 435005, 2010;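 active means all replicates at 75% or more, or half of them and the mean; inconclusive means half reach 75% but not the mean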;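 further: 0% = cytokine-treated negative control wells and 100% = positive control rescue; higher means more ATP so stronger rescue from cytokine killing; wells of about 40 µL received 100 nL stock; the first replicate is given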
AF4-AF9 inh: inhibitors of AF4 peptide binding to AF9, primary screen, biochemical, AlphaScreen, biotin-AF4 peptide, FLAG-AF9, single point | Protein AF-9 (Homo sapiens), P42568 | inhibition, % at 10 µM | 0.47% of 350,000 active;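 active means every replicate reaching a set inhibition limit, whatever the replicate mean, cut at about 25% in these data; inconclusive means mean inhibition reaches that limit but some replicates miss it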;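 further: 0% = plate neutral control median and 100% = total signal loss; the record names both 10 and 1 µM as test concentration; the first replicate is given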
Target sequence (P42568 whole entry, looked up): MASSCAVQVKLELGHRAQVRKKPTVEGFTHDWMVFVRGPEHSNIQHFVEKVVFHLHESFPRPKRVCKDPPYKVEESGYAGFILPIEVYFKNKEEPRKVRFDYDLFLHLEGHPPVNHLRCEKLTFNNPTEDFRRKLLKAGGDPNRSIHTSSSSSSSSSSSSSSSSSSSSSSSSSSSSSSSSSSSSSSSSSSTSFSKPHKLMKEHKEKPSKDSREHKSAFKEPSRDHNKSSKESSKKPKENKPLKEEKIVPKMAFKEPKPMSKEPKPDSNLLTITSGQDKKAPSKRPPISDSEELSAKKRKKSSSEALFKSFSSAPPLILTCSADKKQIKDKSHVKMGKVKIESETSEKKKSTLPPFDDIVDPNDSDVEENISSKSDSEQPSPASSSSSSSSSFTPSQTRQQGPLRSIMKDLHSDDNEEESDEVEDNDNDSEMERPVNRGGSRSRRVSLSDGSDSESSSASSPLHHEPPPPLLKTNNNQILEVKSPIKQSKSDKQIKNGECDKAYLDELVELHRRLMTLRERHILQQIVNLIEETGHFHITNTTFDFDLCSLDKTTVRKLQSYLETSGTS
FGF22 binding: binders of human FGF22 protein, primary screen, FGF22 synaptogenesis inhibitor project, biophysical, thermal shift, single point; Fibroblast growth factor 22 (Homo sapiens), Q9HCT0; recombinant FGF22 thermal shift, SYPRO orange fluorescence; percent of sucrose octasulfate shift, DMSO zero; calls only at 9.99 µM; 1.5% of 340,000 active;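 active means melting point raised past a set limit in the mean and every replicate; inconclusive means no clear call; three in four hits are not shown here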
Target sequence (Q9HCT0 whole entry, looked up): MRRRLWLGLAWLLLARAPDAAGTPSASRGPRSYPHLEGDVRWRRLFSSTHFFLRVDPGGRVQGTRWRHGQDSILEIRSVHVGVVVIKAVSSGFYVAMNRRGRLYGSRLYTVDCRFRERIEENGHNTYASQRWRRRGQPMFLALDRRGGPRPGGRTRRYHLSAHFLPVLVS
Bfl-1 A1 inh: caspase 3/7 activation in MEF A1-2A-BIM cells, primary screen, A1 inhibitor project, cell-based, luminescence, HTS. Caspase-Glo 3/7 luminescence, 3 h; percent of clofoctol response, vehicle zero. caspase activation, % (no concentration beside the values). 0.066% of 330,000 active. AID 2462, 2010;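 active means over half of replicate activation scores above 10%, or exactly half above 10 with the replicate mean above 10; inconclusive means replicate mean below 10 yet half the replicates above 10; inactive means over half of replicates below 10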;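 further: wells of about 30 µL received 50 nL stock; many hits fall short of the cut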
UCH37 DUB inh: inhibitors of human UCH37 deubiquitinase, primary screen, biochemical, Ub-AMC cleavage, fluorescence; purified proteasome/UCH37; inhibition, % (test concentration not listed); Ubiquitin carboxyl-terminal hydrolase isozyme L5 (Homo sapiens), Q9Y5K5; 0.33% of 330,000 active;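 active means mean of two replicates above 20%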;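 further: 0% = compound-free wells with enzyme and 100% = wells lacking proteasome; stock transfer was 100 nL into about 20 µL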
Target sequence (Q9Y5K5 whole entry, looked up): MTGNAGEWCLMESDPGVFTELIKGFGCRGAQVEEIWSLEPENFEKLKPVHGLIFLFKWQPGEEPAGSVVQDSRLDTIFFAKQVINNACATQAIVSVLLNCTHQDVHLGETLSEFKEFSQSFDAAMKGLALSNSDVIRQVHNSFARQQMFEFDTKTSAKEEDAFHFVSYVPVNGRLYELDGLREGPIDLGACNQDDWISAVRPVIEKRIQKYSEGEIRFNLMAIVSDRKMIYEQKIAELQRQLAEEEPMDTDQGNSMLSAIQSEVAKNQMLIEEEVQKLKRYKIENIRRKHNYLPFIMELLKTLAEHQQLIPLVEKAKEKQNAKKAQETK
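Material: Human UCH37 enzyme supplied as purified proteasome complex | Schedule: 30 min preincubation with enzyme, 25 min cleavage at room temperature | Detection: AMC fluorescence 355/460 nm | Measure: % inhibition of Ub-AMC cleavage fluorescence | Controls: Wells without proteasome as full block, compound-free enzyme plus substrate as uninhibited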
Ecoli rRNA inh OD600: recorded beside Ecoli rRNA inh, whose call it bears; OD600 change, %; measured here: OD600 growth;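 optical density of the mix in the first replicate; 0 = DMSO median and -100 = no signal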
Ecoli rRNA inh RFP: further read-out of Ecoli rRNA inh, marked with its call; RFP signal change, %; measured here: RFP humanized mutant strains;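 first replicate; 0 = DMSO median and -100 = no signal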
* marks the source's active call; other numbers are inactive results; i = inactive; ? = inconclusive; nt = no result given. These rows are one share of the data; count on the stated rates, not on these rows.

SMILES	Ecoli rRNA inh	Ecoli rRNA inh OD600	Ecoli rRNA inh RFP	T cruzi repl	Ecoli growth	Beta apoptosis	AF4-AF9 inh	FGF22 binding	Bfl-1 A1 inh	UCH37 DUB inh
O=C(Nc1ccccc1)Nc1ccno1	1	-6	0.4	33	0.52	3	-0.8	i	-0.2	2.5
COc1cc(CNC(C)c2ccccc2)c(Br)cc1OCC(N)=O (centres undefined)	13	11	-11	-18	0.68	5	-0.8	i	2.4	2.7
Cc1occc1C(=O)N/N=C/C(Br)=C\c1ccccc1	0	4	0.6	-10	nt	nt	-2.2	i	-5.2	nt
CCn1c(=O)cc(OCC(=O)Nc2ccccc2N2CCN(C)CC2)c2ccccc21	-6	3	6.4	3	0.73	-6	-2.2	i	nt	2.3
Cc1ccc(C(=O)Nc2sc3c(c2C(=O)NCc2ccco2)CCCC3)cc1	nt	nt	nt	-6	0.76	8	nt	nt	-1.9	-349
O=C(CCCCC(=O)NN=Cc1ccccc1O)NN=Cc1ccccc1O	-14	4	-2.6	nt	0.7	nt	-1.5	i	nt	0.3
O=c1c2ccccc2[nH]c(=S)n1CCN1CCN(Cc2ccccc2)CC1	nt	nt	nt	-13	0.69	nt	nt	nt	1.1	1.9
Cc1cc(C)c(C#N)c(SCC(=O)NC(C)(C)C)n1	2	-2	-0.7	1	0.7	-5	-1.4	i	0.6	5.0
Cc1cc(NC(=O)C2CCCN(S(=O)(=O)c3c(C)noc3C)C2)no1 (centres undefined)	11	9	1.0	-14	0.72	-5	-3.4	i	0.5	5.3
C=CC[C@H](CC(=O)NCCO)C(=O)NC[C@@H](OC(=O)[C@@H](CC=C)Cc1ccc(F)cc1)c1ccccc1	-14	-25	9.2	nt	nt	5	0.1	i	-1.0	1.7
OC(Cc1cccnc1)(Cc1cccnc1)c1cc2ccccc2[nH]1	nt	nt	nt	21	0.66	-3	nt	nt	0.7	-0.3
COc1ccc(OC)c2c1CCC2=O	nt	nt	nt	2	0.7	1	nt	nt	-0.2	-42
CCCc1cc(=O)oc2c3c(cc(OCC(=O)NCC4CCC(C(=O)O)CC4)c12)OC(C)(C)CC3 (centres undefined)	-39*	-14*	-6.4*	4	0.69	5	0.9	i	0.0	i
Cc1cc(NC(=O)CSCC(=O)OCC(=O)Nc2cc(C)c(C)cc2[N+](=O)[O-])no1	8	7	-2.0	-6	0.67	2	-1.1	i	-0.4	1.8
CC(C)n1c(COc2ccccc2)nc2ccccc21	-25	-28	-6.2	9	0.68	-4	0.1	i	-0.1	0.5
CN(C)S(=O)(=O)c1cccc(C(=O)OCC(=O)Nc2ccccc2OC(F)F)c1	nt	nt	nt	-2	0.7	-4	nt	nt	-0.2	-0.8
O=C(CSCc1ccc(Cl)cc1)Nc1ccccc1O	-23	-36	1.3	-34	0.67	1	-1.7	i	-0.2	2.5
O=C(C1=C(O)C(=O)N(CC2CCCO2)C1c1cccnc1)c1ccco1 (centres undefined)	nt	nt	nt	-12	0.74	3	nt	nt	0.7	13
O=C(O)c1ccc(/C=N/Nc2ccc(Cl)nn2)cc1	5	0	-0.7	-3	nt	0	-0.9	i	-8.4	nt
CCC(C)c1ccc(NC(=S)N2CCCC2)cc1 (centres undefined)	-4	-15	-2.2	nt	0.65	16	0.2	i	0.3	-1.5
Cc1cc(C)n(CC2CC(=O)N(c3cc(Cl)cc(Cl)c3)C2=O)n1 (centres undefined)	nt	nt	nt	-12	0.69	-7	nt	nt	0.0	1.6
CC(=O)C1=CN(CC2CCCCC2)CCC1=O	23	17	2.6	nt	0.68	nt	-2.2	i	nt	3.8
COc1cc(C(=O)NCC(c2ccco2)N2CCCC2)ccc1OCc1c(C)noc1C (centres undefined)	nt	nt	nt	-7	0.68	0	nt	nt	1.1	0.9
O=C(COc1ccccc1)NCC1CCCO1 (centres undefined)	7	3	1.6	-9	0.63	-1	-33	i	0.2	-0.2
O=C(CSc1ccc(-c2cccnc2)nn1)Nc1ccc(F)cc1F	9	9	4.6	-8	0.7	-2	1.3	i	0.5	2.9
Cc1onc(-c2ccccc2)c1C(=O)Nc1ccc(OC(C)C)cc1	-3	-14	-5.9	10	0.7	nt	7.3	i	-0.6	4.9
C=CC[C@@H](Cc1ccc(F)cc1)C(=O)OC[C@H]1CCCN1C(=O)[C@H](CC=C)CC(=O)NCCO	-14	-9	3.9	nt	nt	8	0.9	i	-2.4	6.9
COc1ccc(-c2nnc3ccc(SCC(=O)Nc4nc5ccccc5s4)nn23)cc1OC	nt	nt	nt	2	0.71	5	nt	nt	0.0	-12
CC1CC(C)CN(c2oc(-c3ccccc3F)nc2C#N)C1 (centres undefined)	5	5	-2.7	11	0.67	-1	6.9	i	0.8	-78
N=C1C2=C3Sc4ccccc4N3CCCC2=NN1c1cccc(S(=O)(=O)O)c1	-1	11	8.5	2	0.68	-7	-11	nt	0.0	0.4

Full records, looked up by structure. Values in the order: Ecoli rRNA inh	Ecoli rRNA inh OD600	Ecoli rRNA inh RFP	T cruzi repl	Ecoli growth	Beta apoptosis	AF4-AF9 inh	FGF22 binding	Bfl-1 A1 inh	UCH37 DUB inh
`O=C(COc1ccccc1)NCC1CCCO1` (centres undefined) across the screens: 7	3	1.6	-9	0.63	-1	-33	i	0.2	-0.2
`O=C(CSCc1ccc(Cl)cc1)Nc1ccccc1O` across the screens: -23	-36	1.3	-34	0.67	1	-1.7	i	-0.2	2.5

(more compounds)
SMILES	Ecoli rRNA inh	Ecoli rRNA inh OD600	Ecoli rRNA inh RFP	T cruzi repl	Ecoli growth	Beta apoptosis	AF4-AF9 inh	FGF22 binding	Bfl-1 A1 inh	UCH37 DUB inh
Cc1ccc(C(=O)NCCc2nnc3ccc(N4CCCC4)nn23)cc1	22	17	1.9	-3	0.71	-6	1.3	i	-1.1	2.2
COc1cc2cc(CCCOC(=O)c3cc(OC)c(OC)c(OC)c3)oc(=O)c2cc1OC	-10	-5	-9.7	nt	0.65	1	4.8	i	-0.4	5.3
O=C(NNc1cc(Cl)ccc1Cl)c1cccs1	-29	-24	-2.5	7	0.66	-2	-8.3	i	0.1	1.9
CCCOc1ccc(-c2csc(NC(=O)CN3C(=O)CCC3=O)n2)cc1	14	5	-0.4	-18	0.69	-8	-3.0	i	-0.5	3.5
C=CCNC(=O)COC(=O)/C=C/c1cccs1	21	21	5.5	9	nt	-7	-0.9	nt	-0.7	0.3
CC(C)N(CCCNC(=O)C1CCC(CNS(=O)(=O)c2ccccc2)CC1)Cc1ccccc1 (centres undefined)	6	2	-1.7	-14	0.7	6	-1.6	i	-0.4	2.8
CCn1c(C)nnc1SCC(=O)Nc1ccc(Cl)cc1	1	7	3.0	-5	0.69	0	1.8	i	0.3	4.4
CCCCCC1CC(=O)NC1(C(=O)OCC)C(=O)OCC (centres undefined)	-2	10	-5.8	nt	0.67	nt	2.1	i	nt	-1.3
Cc1ccc2cc(C#N)c(NCc3ccco3)nc2c1	nt	nt	nt	2	0.73	1	nt	nt	-0.2	-50
O=c1c2ccccc2c(-c2cccc(C(F)(F)F)c2)nn1-c1ccccc1	9	6	2.8	11	0.7	-1	-2.4	i	1.4	3.6
Cc1ccc(Oc2ccc3c(c2)C(=O)N(c2ccc(S(=O)(=O)Nc4nccs4)cc2)C3=O)cc1	0	-9	2.0	0	0.7	-5	0.9	i	0.1	-8.9
COc1cccc(NC(=O)/C=C/c2ccco2)c1	9	17	1.9	-23	0.69	-1	1.4	i	-8.3	8.6
CC1CCCC(C)N1Cc1cn2ccccc2n1 (centres undefined)	10	5	-2.4	0	0.65	nt	-3.8	i	0.3	-1.6
CCN(CC(=O)NCc1ccc(Cl)cc1)S(=O)(=O)c1ccc(F)cc1	-11	-14	-5.1	2	0.69	-4	-3.8	i	?	4.4
COc1ccc(CNC(=O)CN(c2cc(C)cc(C)c2)S(=O)(=O)c2c(C)noc2C)cc1	0	1	6.9	-15	0.74	2	1.2	i	-0.4	2.4
O=S(=O)(NCc1cn2ccccc2n1)c1cccs1	4	3	-0.9	-18	0.67	-7	-6.5	i	-1.0	1.3
O=C(Nc1cccc(F)c1)c1sc(Cl)nc1-c1ccccc1	-4	-2	-4.0	2	0.69	-4	4.1	i	-0.1	6.0
COc1ccc(/C=C(\C#N)C(=O)OCC(=O)N(C)C2CCS(=O)(=O)C2)cc1 (centres undefined)	0	4	0.4	-1	0.61	-2	13	i	-0.8	12
Cc1nc(S(=O)(=O)Cc2ccccc2Cl)nc2c1CCC2	-4	-2	-2.2	0	0.69	-4	1.1	i	-0.6	1.1
CC(=O)C1CCC2C3CCC4=CC(=O)C=CC4(C)C3CCC12C (centres undefined)	-40	-62	-8.8	nt	0.71	nt	-6.8	i	nt	3.8
CC(=O)NC1CSCC1OC(C)=O (centres undefined)	nt	nt	nt	-10	0.75	1	nt	nt	0.4	2.3
CCN(CC)S(=O)(=O)c1ccc(N2CCOCC2)c(NC(=O)CSCc2c(C)noc2C)c1	3	-5	-1.4	nt	0.66	nt	3.9	i	nt	2.9
CC(C)(C)NC(=O)NC(=O)COC(=O)CNC(=O)C1CCCCC1	18	5	0.2	-7	0.7	-6	-0.3	i	0.1	2.9
CC1=C(C(=O)Nc2ccc(F)cc2)C(c2cccc(C)c2)n2nc(CCCO)nc2N1 (centres undefined)	-4	0	-2.2	0	0.75	-1	6.6	i	0.0	0.9
CCCCN=CC1=C(O)C(C(=O)OC)C(C)(C)CC1=O (centres undefined)	nt	nt	nt	3	0.68	-3	nt	nt	-0.3	2.2
C=CCOc1c(Br)cc(CNc2ccc3[nH]c(=O)[nH]c3c2)cc1OCC	-12	-15	1.5	-23	0.73	nt	-0.3	i	?	4.4
CCOC(=O)c1sc2nc(C(C)C)c3c(c2c1N)CC(C)(C)OC3	nt	nt	nt	7	0.72	-5	nt	nt	0.2	-101
Cc1ccc(SCCC(=O)NC2CC2)cc1	12	7	-6.1	-6	0.69	-6	-4.1	i	-0.6	6.2
Cc1ccc(S(=O)(=O)/N=C(/c2ccc(F)cc2)N2CCCC2)cc1	10	7	0.4	1	nt	3	-0.9	i	-0.2	nt
CC(C)(C)c1ccc(Cn2nnc3c(=O)[nH]c(C4CCCN(C(=O)Cc5cccs5)C4)nc32)cc1 (centres undefined)	nt	nt	nt	37	0.71	8	nt	nt	-0.5	6.0
Cc1ccc(S(=O)(=O)N(C)c2ccc(N)cc2)cc1	nt	nt	nt	-2	0.7	3	nt	nt	-0.5	-1.2
Cc1cccc(NC(=O)CSc2cc(C)c(C#N)c3nc4ccccc4n23)c1	-15	-34	30	-6	0.68	-7	-1.1	i	-1.0	-14

Screening results from PubChem BioAssay.
